# ATXN2 expr inh = inhibitors of ATXN2 expression | actives 0.72% (n = 360,000) | HEK-293 ATXN2-luciferase reporter, luminescence, 24 h | Potency, µM (titrated, usually from 57 µM), without a hit: at the top dose activity change, negative = inhibition, usual class: inhibitors | AID 1745845; also: potency is read from the fitted curve at half-maximal effect; % is scaled to controls: 0 for no effect and ±100 for the full control effect; nearly all actives have a fitted effect of over 55% in size
#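 qHTS (up to 57 uM final) was run with 24 h compound exposure of reporter cells at 37 °C. Each well was multiplexed: SteadyGlo luminescence measured ATXN2-luciferase expression after a fluorogenic Gly-Phe-AFC viability readout (25 uM final).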
# Nrf2 block = Nrf2 pathway inhibition; actives 2.1% (n = 360,000); Potency, µM (doses to about 46 µM), without a hit: at the highest dose activity change, negative = inhibition, usual class: inhibitors; A549 ARE-Fluc reporter, luciferase luminescence, 18-24 h; AID 504444; also: potency is read from the fitted curve at half-maximal effect; % is scaled to controls: 0 for no effect and ±100 for the full control effect; nearly all actives have a fitted effect of over 60% in size
#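 Quantitative HTS in A549 cells stably bearing an antioxidant response element-firefly luciferase construct. Inhibition of Nrf2-driven transcription was scored by luminescence after 18-24 h of compound exposure at 37 °C.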
# HepG2 tox = counter-screen for TGF-b inhibitors: cytotoxicity in HepG2 cells; HepG2 CAGA-GFP viability, ATP luminescence, 18 h; Potency, µM (doses to about 46.1 µM), inactives show top-dose activity change, negative = cytotoxicity, hits mostly cytotoxic; actives 0.76% (n = 410,000); AID 588856; also: potency is read from the fitted curve at half-maximal effect; some results filed as inactive show a strong effect at the top dose
#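 CellTiter-Glo luminescence gave cytotoxicity after 18 hours at 37 degrees C. The cells were HepG2 CAGA-GFP in 1% FBS DMEM, stimulated with 500 pg/mL TGF-beta after compound addition. %Activity was normalised to no-cell wells (complete cell-killing) and DMSO (no toxicity), and curves were fitted and classified.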
# TGFb inhibitor = inhibitors of TGF-b signaling; HepG2 CAGA-GFP TGF-b/SMAD3 reporter, GFP fluorescence, 18 h; TGF-beta stimulated, 500 pg/mL final; actives 1.2% (n = 410,000); AID 588855; Potency, µM (titrated, usually from 46.1 µM), for the others: top-dose activity, negative = inhibition, hits mostly inhibitors; also: potency is read from the fitted curve at half-maximal effect; % is scaled to controls: 0 for no effect and ±100 for the full control effect; nearly all actives have a fitted effect of over 65% in size
#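 HEPG2 CAGA-GFP reporter cells (1000/well, DMEM with 1% FBS) received compounds, then recombinant TGF-beta at 500 pg/mL final for 18 hours at 37 degrees C. Per-cell GFP summed per well was normalised to unstimulated and stimulated DMSO controls before curve fitting.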
# A549 tox = A549 cytotoxicity, counter-screen for Nrf2 inhibitors; actives 0.16% (n = 390,000); Potency, µM (titrated, usually from 46 µM), inactives show top-dose activity change, negative = cytotoxicity, usual class: inhibitors; A549 ARE-Fluc cells, CellTiter-Fluor viability, 18-24 h; also: potency is read from the fitted curve at half-maximal effect; % is scaled to controls: 0 for no effect and ±100 for the full control effect
#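 A549 ARE-Fluc cells in 5% FBS OPTI-MEM, 5000 cells/well, rested 2 h then exposed to compounds in concentration-response for 18-24 h at 37 °C. Viability by CellTiter-Fluor fluorescence (Ex 405/Em 525) after 30 min; luciferase luminescence (BugLite, 15 min, RT) read afterwards.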
# ATXN viability = viability counter-screen for ATXN expression inhibitors. S2 cells (HEK-293 line with an ATXN2-luciferase reporter) viability, CellTiter-Fluor protease fluorescence, 24 h. Potency, µM (doses to about 56.7 µM), hits mostly cytotoxic. actives 0.49% (n = 400,000). AID 651635; also: potency is read from the fitted curve at half-maximal effect; nearly all actives have a fitted effect of over 40% in size
# Nrf2 activator = activators of Nrf2 (ARE) signaling. AREc32 ARE-luciferase reporter (MCF7-derived line), luminescence, 24 h. actives 0.31% (n = 410,000). Potency, µM (top dose mostly 46.1 µM), for inactives: top-dose activation, hits mostly activators. AID 624171; also: potency is read from the fitted curve at half-maximal effect; % of control where 0% means no effect; nearly all actives have a fitted effect of over 65% in size
#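 Reporter line AREc32 (ARE-Fluc), seeded overnight in OPTI-MEM with 5% FBS; compound pin-transferred, 24 hr at 37 deg C, 5% CO2; luminescent read-out.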
# IL2 activator = IL-2 activation; IL-2 activation reporter assay, cell-based qHTS; stimulated with anti-CD3/CD4/CD28 beads; in transgenic mouse T cells; activation, % (series mostly up to about 46 µM); actives 0.065% (n = 360,000); in the data active = activation above about 50%; inconclusive = mostly about 30% to 49%; also: 0% is about no effect
#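 Unstimulated transgenic mouse T cells, 750 per well, received compound and, after 60 minutes, anti-CD3/anti-CD4 bead plus anti-CD28 stimulation. EGFP and DsRed were quantified after 18 hours.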
# Starred values were filed as active, the others as inactive; i = inactive; ? = inconclusive; · = no result given; & = joins results of further samples; [ ] = dose if it differs, or a comment. Unless noted, calls follow the shape of the dose curve; as a rule, active = well fitted curve in the direction sought with a large enough effect; inconclusive = small, poorly fitted or top-dose-only effect, or another doubt; inactive = no such curve, though single readings can be large; an effect the other way counts as inactive or inconclusive.
SMILES	Nrf2 activator	TGFb inhibitor	A549 tox	ATXN2 expr inh	IL2 activator	ATXN viability	Nrf2 block	HepG2 tox
CCOC(=O)C1CCCN(C(=S)NC(=O)/C=C/c2ccc(F)cc2)C1 (stereo not drawn)	3.4%	-10.8%	4.0%	·	0.7	i	-28.7%	-19.8%
COc1ccc(/C=N/n2cnc3c([nH]c4ccccc43)c2=O)cc1CO	-0.3%	-11.6%	-1.9%	8.4%	-2.0	i	7.8%	-8.0%
CC(C)C[C@H](NC(=O)c1[nH]cnc1C(=O)N[C@@H](C)C(=O)OCc1ccccc1)C(=O)OC(C)(C)C	0.7%	?	2.9%	?	-4.1	?	-1.3%	-31.4%
COc1cccc(/C=C/C(=O)OCC(=O)c2ccc3c(c2)NC(=O)CO3)c1OC	3.6%	-9.5%	2.9%	-10.5%	-0.2	i	?	-15.7%
Cc1ccccc1C1CC(=O)c2ccccc2C1C (stereo not drawn)	-0.2%	-3.3%	0.4%	2.5%	-0.6	i	1.1%	6.9%
CCC(=O)N1CCC1(C)C(=O)Nc1ccc(Cl)c(Cl)c1 (stereo not drawn)	0.8%	5.2%	·	5.5%	-0.8	i	·	-9.3%
O=C(COC(=O)Cc1cccs1)Nc1ccccc1	-0.2%	0.0%	-1.6%	0.3%	1.3	i	5.8%	15.7%
Cc1ccc(S(=O)(=O)N2[C@@H](c3ccc(C(C)(C)C)cc3)C(C(=O)O)=CC[C@H]2c2ccc(Cl)cc2)cc1	-0.2%	?	-23.4%	?	-0.6	?	18.4µM*	-108.6%
CCOc1ccc(N(Cc2ccc(OC)cc2)C(=O)c2ccco2)cc1	2.5%	-25.6%	0.1%	13.7%[11.3 µM]	-1.0	i	-17.2%	12.8%
Nc1ccc(C(=O)OC2CCOC2=O)cc1[N+](=O)[O-] (stereo not drawn)	-0.6%	3.0%	-7.6%	0.2%	-2.0	?	-3.1%	0.5%
O=C1CCCC2=C1C(c1cccc(O)c1)c1c(ccc3ncccc13)N2 (stereo not drawn)	11.0%	-8.2%	-1.2%	122.9%[activator]	1.0	i	-2.9%	-17.3%
COc1cccc(N/C=C/C(=O)c2ccc(Cl)cc2)c1	17.9%	7.8%	-2.0%	60.9%[activator]	-0.8	·	?	-28.1%
CCOC(=O)C1Oc2ccccc2C(c2cccc3ccccc23)=C1C(=O)OC (stereo not drawn)	5.2%	?	11.3%	-2.4%	-0.8	i	-18.5%	-20.3%
O=[N+]([O-])c1cc(-c2n[nH]c(-c3ccccc3)n2)cc([N+](=O)[O-])c1	7.5%	?	-2.7%	-22.2%	-0.3	i	10.2%	-15.3%
COCCN(CCOC)Cc1cc(=O)oc2cc(C)cc(C)c12	0.3%	-15.2%	·	4.9%	-0.7	i	·	-4.6%
CN1CCN(S(=O)(=O)c2ccc(NC(=S)NC(=O)C3CCCCC3)cc2)CC1	-0.4%	11.3%	8.3%	-9.1%	-3.1	i	22.2%	-21.3%
CC(C)C(=O)NC(=S)Nc1ccc(S(=O)(=O)N2CCCC2)cc1	0.2%	-29.0%	-3.9%	-2.3%	0.0	i	-14.6%	-29.9%
COc1ccc(C2CC(=O)NC3=C2C(=O)CCC3)cc1Cl (stereo not drawn)	3.1%	23.8%	-4.5%	3.6%	-0.9	i	·	4.3%
CN(C)CCN(Cc1ccccc1)C(c1cc2ccccc2o1)c1nnnn1C(C)(C)C (stereo not drawn)	10.0%	·	·	-14.2%	0.2	?	·	·
COc1ccc2c(c1)CCc1c(C(=O)Nc3c(C)nn(Cc4ccccc4)c3C)noc1-2	-0.7%&-0.2%	?	-6.4%&-16.3%	-12.6%&-6.1%	-1.5	i	20.6µM*	-4.8%&-15.9%

# Record cards, as listed above.
# CN1CCN(S(=O)(=O)c2ccc(NC(=S)NC(=O)C3CCCCC3)cc2)CC1 reads Nrf2 activator = -0.4%; TGFb inhibitor = 11.3%; A549 tox = 8.3%; ATXN2 expr inh = -9.1%; IL2 activator = -3.1; ATXN viability = i; Nrf2 block = 22.2%; HepG2 tox = -21.3%
# CN(C)CCN(Cc1ccccc1)C(c1cc2ccccc2o1)c1nnnn1C(C)(C)C (stereo not drawn) reads Nrf2 activator = 10.0%; TGFb inhibitor = ·; A549 tox = ·; ATXN2 expr inh = -14.2%; IL2 activator = 0.2; ATXN viability = ?; Nrf2 block = ·; HepG2 tox = ·

# The listing continues.
SMILES	Nrf2 activator	TGFb inhibitor	A549 tox	ATXN2 expr inh	IL2 activator	ATXN viability	Nrf2 block	HepG2 tox
COc1ccc(Cl)c(S(=O)(=O)N2CCCC2)c1	-0.4%	-9.0%	1.7%	-4.7%	-3.2	i	1.3%	0.2%
COc1ccc(C2CC(=O)Oc3ccc(OC)cc32)cc1 (stereo not drawn)	0.0%	12.6%	-3.6%	0.1%	-0.4	i	11.1%	0.8%
O=c1cc(O)nc(SCc2ccccc2Cl)[nH]1	-0.4%	0.0%	4.7%	2.5%	0.8	i	·	14.5%
Cc1nn(-c2ccccc2)c2[nH]c(=O)c(CNCC3CCCO3)cc12 (stereo not drawn)	2.0%	-1.4%	4.2%	-13.6%	1.6	i	14.5%	-9.8%
COc1ccccc1N1C(=O)N(CC(=O)C(C)(C)C)c2ccccc2S1(=O)=O	-0.3%&-0.9%	2.0%&0.8%	1.1%&1.7%	-3.8%&9.1%	-2.8	?	-6.5%	2.2%&-3.0%
COc1ccc(OC)c(CN(CCCN2CCOCC2)S(=O)(=O)c2ccc(NC(C)=O)cc2)c1	-0.2%	2.8%	-3.3%	2.8%	-0.2	i	15.3%	-0.6%
Cc1ccc2cc(C(c3nnnn3Cc3ccccc3)N3CCc4ccccc43)c(=O)[nH]c2c1C (stereo not drawn)	0.6%	0.0%	-6.8%	6.5%	2.7	i	-12.8%	-24.2%
CCNC(=O)C1(C)CCCN1Cc1cccc(C(F)(F)F)c1 (stereo not drawn)	0.1%	3.2%	·	-3.9%	-0.9	i	·	-12.7%
CCc1nc2c(OCCC3CCCCC3)cccn2c1N(C)C(=O)C(C)C	0.9%	?	·	?	-0.4	·	·	-32.7%

# Retrieved by structure from above:
SMILES	Nrf2 activator	TGFb inhibitor	A549 tox	ATXN2 expr inh	IL2 activator	ATXN viability	Nrf2 block	HepG2 tox
Cc1ccc(S(=O)(=O)N2[C@@H](c3ccc(C(C)(C)C)cc3)C(C(=O)O)=CC[C@H]2c2ccc(Cl)cc2)cc1	-0.2%	?	-23.4%	?	-0.6	?	18.4µM*	-108.6%
CC(C)C(=O)NC(=S)Nc1ccc(S(=O)(=O)N2CCCC2)cc1	0.2%	-29.0%	-3.9%	-2.3%	0.0	i	-14.6%	-29.9%
Cc1nn(-c2ccccc2)c2[nH]c(=O)c(CNCC3CCCO3)cc12 (stereo not drawn)	2.0%	-1.4%	4.2%	-13.6%	1.6	i	14.5%	-9.8%

# An excerpt; the hit share may differ from the screen's.
